Lassa entry inh: qHTS for Inhibitors of binding or entry into cells for Lassa Virus; Lassa virus pseudotype entry inhibition, cell reporter; control for the full effect not named in the record; Potency, µM (series often up to 37.9 µM), inactives show at the highest dose activity change, negative = inhibition, usual class: inhibitors; actives 1.2% (n = 300,000); AID 540256, 2011; active means well fitted inhibition curve with a large enough effect; inconclusive means small, poorly fitted or top-dose-only effect, or effect the other way; inactive means flat fitted curve, though single readings scatter; tested in HEK293 cells; further: on the % scale 0 is the no-effect control and ±100 the full control effect; nearly all actives have a fitted effect of over 50% in size; luciferase read-out
NS1 inh: qHTS Assay for Inhibitors of Influenza NS1 Protein Function | S. cerevisiae slowed by influenza A NS1, growth recovery by OD600 | Potency, µM (series often up to 46.1 µM), for inactives: top-dose activity, positive = more growth | actives 0.4% (n = 270,000); further: actives are rising curves; nearly all actives have a fitted effect of over 50% in size
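Recovery from NS1-induced slow growth read by OD600 in budding yeast switched to galactose assay medium (pH 6.0, -URA) at 1:100 dilution. Compound 23 nl per well; the matching strain lacking NS1 serves as control.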
Cruzain inh noDet: qHTS Assay for Promiscuous and Specific Inhibitors of Cruzain (without detergent); purified cruzain, Z-FR-AMC fluorescence, no detergent; Potency, µM, for the others: max response, negative = inhibition, usual class: inhibitors; actives 2.3% (n = 200,000); active means well fitted curve in the direction sought with a large enough effect; inconclusive means small, poorly fitted or top-dose-only effect, or another doubt; inactive means no such curve, though single readings can be large; an effect the other way counts as inactive or inconclusive;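 further: plate controls were enzyme without inhibitor for no effect and buffer without enzyme for full effect; nearly all actives have a fitted effect of over 40% in size; top concentration of the series not given in the record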
Target sequence (P25779 123-467 limits assumed): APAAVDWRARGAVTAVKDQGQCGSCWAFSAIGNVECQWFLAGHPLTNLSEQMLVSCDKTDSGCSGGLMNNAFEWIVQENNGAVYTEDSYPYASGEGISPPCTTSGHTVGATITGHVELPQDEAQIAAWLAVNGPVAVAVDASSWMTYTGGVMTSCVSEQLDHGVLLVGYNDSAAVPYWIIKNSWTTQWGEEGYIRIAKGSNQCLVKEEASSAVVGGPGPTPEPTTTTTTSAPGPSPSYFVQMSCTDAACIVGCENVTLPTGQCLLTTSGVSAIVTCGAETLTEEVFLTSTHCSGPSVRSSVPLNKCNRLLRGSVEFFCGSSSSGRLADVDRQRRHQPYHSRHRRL
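Detergent-free condition (0.00005% Triton X-100) in acetate buffer pH 5.5 with DTT. 1.5 nM enzyme and compound were pre-mixed 15 min, then 2 uM Z-FR-AMC substrate added; reaction progress from fluorescence change between first and third reads (60 s).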
SARS PLP yeast: qHTS of Yeast-based Assay for SARS-CoV PLP. S. cerevisiae expressing SARS-CoV PLpro, growth rescue; control for the full effect not named in the record. actives 0.19% (n = 330,000). Potency, µM (titrated, usually from 32.9 µM), for inactives: top-dose activity, positive = growth rescue; further: 0% is about no effect; nearly all actives have a fitted effect of over 55% in size; growth read by luminescence after 48 h
Cruzain Triton: qHTS Assay for Promiscuous and Specific Inhibitors of Cruzain (with detergent) | Potency, µM, for inactives: max response, negative = inhibition, actives largely listed as inhibitors | Cruzipain (Trypanosoma cruzi), P25779 | purified cruzain, Z-FR-AMC fluorescence, 0.01% Triton | AID 1478, 2009 | actives 0.43% (n = 200,000); active means well fitted curve in the direction sought with a large enough effect; inconclusive means small, poorly fitted or top-dose-only effect, or another doubt; inactive means no such curve, though single readings can be large; an effect the other way counts as inactive or inconclusive;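 further: plate controls were neutral wells for no effect and buffer without enzyme for full effect; nearly all actives have a fitted effect of over 40% in size; top concentration of the series not given in the record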
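Read-out: AMC fluorescence (360 nm excitation, 450 nm emission), four reads over 2 min, first-to-third difference used. Conditions: cruzain 1.5 nM, Z-FR-AMC 2 uM, pH 5.5 acetate, 5 mM DTT, 0.01% Triton X-100.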
Marburg entry inh: qHTS for inhibitors of binding or entry into cells for Marburg Virus. Marburg virus pseudotyped entry inhibition, cell reporter; control for the full effect not named in the record; about a third of the inactives were read at about 46 µM. actives 1.8% (n = 300,000). Potency, µM (top dose mostly 37.8 µM), without a hit: at the top dose activity change, negative = inhibition, most hits filed as inhibitors; active = well fitted inhibition curve with a large enough effect; inconclusive = small, poorly fitted or top-dose-only effect, or effect the other way; inactive = flat fitted curve, though single readings scatter; tested in HEK293 cells; about a fifth of its hits are not listed in these tables; further: on the % scale 0 is the no-effect control and ±100 the full control effect; luciferase read-out
RE007 growth inh: qHTS Assay for Inhibitors of the HIV-1 protein Vpr; S. pombe RE007 Vpr strain, BacTiter-Glo ATP luminescence, 24 h; control for the full effect not named in the record; actives 0.21% (n = 360,000); Potency, µM (highest dose often 92.2 µM), inactives show top-dose activity change, negative = less growth; active = well fitted falling curve with a large enough effect; inconclusive = small, poorly fitted or top-dose-only effect; inactive = no such curve, though single readings can be large or run the other way;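 further: on the % scale 0 is the no-effect control and ±100 the full control effect; nearly all actives have a fitted effect of over 50% in size; the assay follows cell death caused by Vpr and the record does not say whether a fall means rescue or toxicity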
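Fission yeast RE007 carrying one integrated HIV-1 vpr copy, seeded at OD 0.01 in PMG+AL medium with 23 nL pinned compound. Grown 24 h at 30 degrees; viability read by BacTiter-Glo luminescence after 5 min.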
StopGo reporter: High Throughput Screening for Foot and Mouth Disease Virus Antivirals | human cells with a luciferase reporter of 2A StopGo recoding; control for the full effect not named in the record | actives 1.2% (n = 410,000) | Potency, µM (doses to about 57.9 µM), for the others: top-dose signal change, negative = less light; active = well fitted falling curve with a large enough effect; inconclusive = small, poorly fitted or top-dose-only effect; inactive = no such curve, though single readings can be large or run the other way; tested in HEK293T cells; further: on the % scale 0 is the no-effect control and ±100 the full control effect; nearly all actives have a fitted effect of over 45% in size; luciferase light after 4 h
The depositor's hits bear a star; ? = inconclusive; · = no result given; & = joins results of further samples; [ ] = dose if it differs, or a comment. Unless noted, the call rests on the fitted dose curve; in most records, active means well fitted rising curve with a large enough effect; inconclusive means small, poorly fitted or top-dose-only effect; inactive means no such curve, though single readings can be large or run the other way. Potency means the concentration at half of the fitted maximal effect.

SMILES | Lassa entry inh | NS1 inh | Cruzain inh noDet | SARS PLP yeast | Cruzain Triton | Marburg entry inh | RE007 growth inh | StopGo reporter
O=C(Nc1ccccc1C(=O)O)c1cc(S(=O)(=O)N2CCCCC2)cs1 | -14% | 3% | · | -1% | · | -22%[46.1 µM] | 4% | 45%[activator]
CN(C)c1ccc(-c2nn3c(C4CCCCC4)nnc3s2)cc1 | -29% | -40% | 22% | 0% | -4.0% | -1% | 8% | -2%
CCC(C)(C)c1nnc(NC(=O)C2CCN(C(=O)c3ccco3)CC2)s1 | -2%[46.1 µM] | 0% | · | 0% | · | ? | -21% | -23%
COc1ccc(C(=O)N/C(=C\c2ccc(Cl)cc2)C(=O)NCC2CCCO2)cc1 (stereo not drawn) | 4% | 3% | · | 3% | · | 10% | -5% | -9%
Cc1ccc(-c2csc(NC(=O)c3cc([N+](=O)[O-])ccc3N3CCOCC3)n2)cc1 | · | 8% | · | 0% | · | · | 1% | 20%
O=C(N/N=C/c1c(Cl)[nH]c2ccccc12)c1sc2ccccc2c1Cl | ? | 0% | -29% | -53% | -6.1% | ? | -25% | -6%
C/C(=N/N=C(/C)c1cccs1)c1cccs1 | 9%[46.1 µM] | -34% | · | -3% | · | -18%[46.1 µM] | -24% | 8%
CCc1noc(C)c1C(=O)N(C)CC(=O)Nc1ccccc1Br | 6% | · | · | -2% | · | 11% | -7% | 3%
O=C1CC(C(=O)O)NC(=S)N1 (stereo not drawn) | 21%[46.1 µM] | · | · | · | · | 0%[46.1 µM] | -5% | 8%
CCOC(=O)Cn1c(=O)n(-c2ccc(Cl)cc2)c2nc(-c3ccc(Cl)cc3)nc(C(N)=O)c21 | 9%[46.1 µM] | · | -3% | · | 0.4% | · | · | -17%
O=C1c2ccccc2C(=O)c2c1ncn2-c1ccccc1 | -3% | 18% | 11% | 2% | -2.4% | ? | -16% | -15%
CCOc1ccccc1CNS(=O)(=O)c1ccc(-c2coc(C)n2)cc1 | -2%[46.1 µM] | · | -18% | · | -4.6% | · | · | 0%
CCN1C(=NCCc2ccc(Br)cc2)N[C@@H](c2ccccc2)[C@H](C(=O)OC)[C@H]1C | ? | 0% | · | 3%&5% | · | ? | -24% | -10%
Cc1ccc(C(=O)Nc2nnc(-c3ccncc3)o2)cc1 | ? | 9% | · | -8% | · | ? | 9% | 33%[activator]
Fc1ccc(N/N=C/C=C/c2ccccc2)c(F)c1 | 16% | -10% | -3% | -39% | -13% | ? | 9% | 42%[activator]
O=C(OCn1nnc2ccccc2c1=O)C1CCN(S(=O)(=O)c2cccs2)CC1 | 11% | -18% | -2% | -19% | -5.1% | ? | -11% | -13%
O=C(/C=C/c1ccccc1)NCCc1ccccc1 | · | -4% | · | -3% | · | · | -14% | 51%[activator]
COc1ccc(CCNC(=O)c2cnn(-c3ccc(F)cc3)c2C2CCN(C(=O)OC(C)(C)C)CC2)cc1OC | ? | · | ? | · | -6.2% | · | · | -17%
O=C1NC(c2ccccc2)Nc2c1sc(=S)n2-c1ccccc1 (stereo not drawn) | -7% | · | · | -2% | · | 21%[46.1 µM] | -16% | ?
CCc1ccc2c(c1)C(O)(CC(=O)c1cccs1)C(=O)N2 (stereo not drawn) | 15%[46.1 µM] | -3% | · | 2% | · | 4%[46.1 µM] | 5% | -25%
Cc1ccc(NC(=O)CCCc2ccccc2)c([N+](=O)[O-])c1 | · | -19% | · | -2% | · | · | -18% | 14%
CC(=O)C(Cc1ccccc1)NC(=O)CN1c2cccc3cccc(c23)S1(=O)=O (stereo not drawn) | -9% | · | · | 7% | · | 27% | 20% | -19%
CCOC(=O)Nc1sc(C)c(C)c1C(=O)OCC | ? | -3% | 6% | -5% | -6.3% | ? | -18% | 0%
Cc1cccc(NC(=O)Cn2c(=O)oc3cc(S(=O)(=O)NCc4ccccc4)ccc32)c1 | · | · | 5% | · | -5.2% | ? | · | 4%
CCOC(=O)c1nn(-c2ccccc2F)c(-c2ccccc2)c1C(=O)c1ccccc1 | ? | -13% | 11% | -1% | -4.9% | ? | -21% | 21%
CCCCCCCNC(=O)CN1N=C(c2ccc(C)cc2)CCC1=O | · | -40% | · | 1% | · | · | -3% | -22%
CCOc1ccc(S(=O)(=O)NCCC(=O)N(C)Cc2cccs2)cc1 | 13% | · | · | 9% | · | 18% | 0% | 18%
CCOc1ccc(C2C(=O)N(C3CCCCCC3)CC(=O)N2CCc2ccc(OC)c(OC)c2)cc1OC (stereo not drawn) | 13%[46.1 µM] | · | ? | · | 0.4% | · | · | -8%
CCOc1ccc(-n2c(SCc3ccc(C(=O)OC)o3)nc3c(c2=O)SCC3)cc1 | ? | -54% | -16% | ? | -1.0% | ? | 26% | -23%
COc1ccc(N=C2NN=C(c3c(C)[nH]c4ccccc34)CS2)cc1 | ? | ? | ? | 5% | -4.4% | 11µM* | -6% | -16%

A second format for 2 compounds above.
Compound	Lassa entry inh	NS1 inh	Cruzain inh noDet	SARS PLP yeast	Cruzain Triton	Marburg entry inh	RE007 growth inh	StopGo reporter
COc1ccc(CCNC(=O)c2cnn(-c3ccc(F)cc3)c2C2CCN(C(=O)OC(C)(C)C)CC2)cc1OC	?	·	?	·	-6.2%	·	·	-17%
O=C1NC(c2ccccc2)Nc2c1sc(=S)n2-c1ccccc1 (stereo not drawn)	-7%	·	·	-2%	·	21%[46.1 µM]	-16%	?

(next part)
SMILES | Lassa entry inh | NS1 inh | Cruzain inh noDet | SARS PLP yeast | Cruzain Triton | Marburg entry inh | RE007 growth inh | StopGo reporter
COc1ccc(CCn2c(C)cc(C(=O)COC(=O)c3cnc(C)cn3)c2C)cc1 | 9% | · | · | 3% | · | 10%[46.1 µM] | 31% | -6%
CC(=O)C1C(c2ccc([N+](=O)[O-])cc2)c2c(noc2C)CC1(C)O (stereo not drawn) | -6% | 4% | · | 0% | · | -7%[46.1 µM] | 18% | -15%
NC(=O)COc1ccc(NC(=O)CC23CC4CC(CC(C4)C2)C3)cc1 | · | 10% | · | 4% | · | · | 4% | -11%
O=C(Oc1ccc(=O)n(-c2ccccc2)n1)c1ccc(Cl)cc1 | 14% | -54% | 0% | -2% | -4.0% | 20% | -25% | ?
CCN(Cc1ccccc1)C(=O)c1ccc(Cl)cc1[N+](=O)[O-] | -1%[46.1 µM] | · | · | 2% | · | 3%[46.1 µM] | -8% | 9%
C[C@@H]1CC2[C@@H]3CC[C@H]4CC(=O)CC[C@]4(C)C3=CC[C@]2(C)[C@@]1(O)C(=O)CO (stereo partly drawn) | -22% | -6% | · | -5% | · | -16% | -4% | ?
CCN(CC)c1ccc(NC(=O)c2[nH]c(C)c(C(C)=O)c2C)c(C)c1 | -25% | -2% | -7% | 7% | 11% | -6% | 16% | ?
CNC(=S)NNc1ccccc1[N+](=O)[O-] | ? | · | · | 2% | · | -17% | 3% | 13%
CC1(C)Cc2cccc(OCC(=O)OCC(=O)NCc3ccc(F)cc3)c2O1 | 1% | · | · | 6% | · | 17% | -6% | 1%
O=C(c1ccc(F)cc1)n1ccc(-c2cnc(-c3ccccc3)s2)n1 | 13% | -64% | 6.3µM* | -16% | 2.7% | 13%[46.1 µM] | -4% | -11%
COCC(=O)N(Cc1nc2ccccc2c(=O)[nH]1)Cc1cccs1 | 5% | 3% | -2% | 8% | -4.3% | 3% | 4% | 16%
CC(C)(O)CNC(=O)C(Cc1ccccc1)N1C(=O)c2ccccc2C1=O (stereo not drawn) | · | 0% | · | 0% | · | · | 0% | 1%
COc1ccccc1C1CC(c2ccco2)=NN1S(C)(=O)=O (stereo not drawn) | 8% | 0% | · | -1% | · | 3%[46.1 µM] | -19% | 39%[activator]
CCc1noc(-c2ccc(NC(C)c3ccccc3)c([N+](=O)[O-])c2)n1 (stereo not drawn) | 1%[46.1 µM] | · | 21% | · | -3.1% | 1%[46.1 µM] | · | -5%
COc1ccc(S(=O)(=O)N2CCCC(C(=O)Nc3ccc(OC)c(OC)c3)C2)cc1 (stereo not drawn) | -23% | -34% | ? | -14% | -2.7% | -23% | -5% | ?
Nc1cnc(CNc2ccccc2Cl)cn1 | · | 2% | · | -2% | · | · | -23% | 27%
CN(C(=O)c1ccc(Br)o1)C1CCS(=O)(=O)C1 (stereo not drawn) | 7%[46.1 µM] | 10% | · | -2% | · | 8%[46.1 µM] | -4% | -3%
CCOC(=O)N1CCN(S(=O)(=O)c2cccs2)CC1 | 9% | 1% | 8% | -1% | -3.1% | 12% | 26% | 1%
CCCCCN(C(=O)CCC(=O)OCC(=O)c1ccc(CCC)cc1)c1c(N)n(CCCC)c(=O)[nH]c1=O | -7% | · | · | · | · | -19% | 8% | 11%
O=C(NCc1ccccn1)C(=O)NCC1OCCN1S(=O)(=O)c1ccc(F)cc1 (stereo not drawn) | 10%[46.1 µM] | -2% | · | -2% | · | -4%[46.1 µM] | 0% | -8%
CC(C)(C)CNc1cc(N2CCCC2)ccc1[N+](=O)[O-] | -9% | -10% | -16% | 0% | 3.2% | 2% | -8% | 0%
CC(=O)Nc1ccc(NC(=O)c2c(C)nc3ccccn23)cc1 | 14% | 4% | -2% | -3% | 2.4% | 10% | -25% | ·
Cc1nnc(SCC(=O)Nc2sc3c(c2C#N)CCCCC3)n1N | ? | -1% | -1% | -4% | -1.7% | ? | 7% | 52%[activator]
O=C1CSc2ccc(C(=O)NCC(c3ccco3)N3CCCCC3)cc2N1 (stereo not drawn) | 7%[46.1 µM] | · | · | -3% | · | 0%[46.1 µM] | -5% | -2%
COc1cc(NC(=O)CSc2nnc3ccc(-c4ccncc4)nn23)cc(OC)c1 | 8%[46.1 µM] | 6% | · | 0% | · | ? | -10% | 2%
C=CCNC(=O)NC(=O)COC(=O)/C=C/c1cccc([N+](=O)[O-])c1 | -6% | · | · | 5% | · | -29% | -8% | ?

This is a random part of the collection; about 4.7% have a hit in one of these screens.
